# gsp agonist: agonists of gsp mutant (McCune-Albright syndrome). gsp mutant cells, cAMP HTRF, 30 min; control for the full effect not named in the record. Potency, µM (titrated, usually from 76.9 µM), for the others: at the top dose activation (cAMP increase), usual class: activators. actives 0.13% (n = 340,000). AID 624287; active = well fitted activation curve with a large enough effect; inconclusive = small, poorly fitted or top-dose-only effect, or another doubt; inactive = no such curve, though single readings can be large or run the other way; cell line not stated here;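 also: phosphodiesterase inhibitor Ro 20-1724 added with compounds to block cAMP breakdown; potency is read from the fitted curve at half-maximal effect; nearly all actives have a fitted effect of over 60% in size; about a fifth of the inactives were tested at one dose only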
#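 Cells in DMEM/10% FBS with G418 were pretreated with compounds in DMSO plus […] (300 uM stock) for 30 min at 37C. cAMP was measured by HTRF (cAMP-d2 plus anti-cAMP antibody-K) after 30 min at room temperature.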
# ClpP mod: qHTS Assay for Activators of ClpP; purified B. subtilis ClpP, FRET peptide cleavage, 20 min; actives 1.9% (n = 340,000); Potency, µM (top dose mostly 57.5 µM), for the others: at the top dose activity change, negative = active; active = well fitted falling curve with a large enough effect; inconclusive = small, poorly fitted or top-dose-only effect; inactive = no such curve, though single readings can be large or run the other way; also: potency is read from the fitted curve at half-maximal effect; the source files actives as falling curves though it sought activators and does not explain the sign; nearly all actives have a fitted effect of over 65% in size; many hits overshoot -100%
# Target sequence (P80244 whole entry, looked up): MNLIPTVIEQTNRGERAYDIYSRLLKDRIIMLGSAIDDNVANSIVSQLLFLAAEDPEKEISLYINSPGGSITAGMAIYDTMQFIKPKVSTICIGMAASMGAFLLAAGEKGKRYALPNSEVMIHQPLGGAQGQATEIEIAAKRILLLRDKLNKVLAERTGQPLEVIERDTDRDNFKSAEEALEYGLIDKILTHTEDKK
#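 FRET quenching reversal measured ClpP activation: 10 microg/mL B. subtilis ClpP at pH 8 with the FRET-FV decapeptide, read at 430 nm after 320 nm excitation. The 20-min minus 0-min signal was scaled between DMSO/no-enzyme wells and ADEP (5.8 microM final).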
# Menin-MLL FL inh: inhibitors of human menin-MLL interaction, wild-type MLL peptide; Fluorescence polarization, fluorescein-MLL peptide displacement from menin; FP activity change, % at 61.4 µM; 290,000 tested, under 10 active; inconclusive = falling polarisation curve, or a change in total fluorescence; inactive = total fluorescence flat and polarisation flat or rising; no compound was filed as active; the % refers to the polarisation; negative = inhibition;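 also: % of control where 0% means no effect; inhibitors lower the polarisation; unlabelled MLL peptide was the positive control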
# gsp antag: antagonizes gsp, the McCune-Albright syndrome mutation; gsp-mutant cells, cAMP HTRF, 30 min; control for the full effect not named in the record; Potency, µM (series often up to 76.9 µM), for the others: at the top dose activity change, negative = inhibition, most hits filed as inhibitors; actives 0.4% (n = 340,000); AID 624288; active = falling curve of any shape with a large fitted effect; inconclusive = falling curve, mostly with a smaller effect; inactive = flat or rising curve; cell line not stated here;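 also: intracellular cAMP measured with PDE inhibitor Ro 20-1724 present during compound exposure; potency is read from the fitted curve at half-maximal effect; % is scaled to controls: 0 for no effect and ±100 for the full control effect; nearly all actives have a fitted effect of over 65% in size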
#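 HTRF cAMP measurement after 30 min RT detection following 30 min, 37C compound treatment alongside […] (added as 300 uM solution) in G418-selected cells seeded at 2000/well and grown 16–24 h.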
# PINK1 modulator: changes PINK1 expression; PINK1 immunofluorescence, high-content cytometry, 24 h; Potency, µM (titrated, usually from 76.6 µM), without a hit: at the highest dose activation (PINK1 increase), actives largely listed as activators; actives 0.2% (n = 410,000); AID 624263; active = well fitted activation curve with a large enough effect; inconclusive = small, poorly fitted or top-dose-only effect; inactive = flat fitted curve, though single readings scatter; cell line not stated here;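 also: potency is read from the fitted curve at half-maximal effect; % of control where 0% means no effect; nearly all actives have a fitted effect of over 65% in size; a mitochondrial uncoupler was the plate control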
#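 Stable cell line treated 24 h with compounds at 5 concentrations (CCCP controls), then fixed and immunostained for PINK1 plus nuclear and cell stains; PINK1 immunofluorescence quantified by laser-scanning microplate cytometry.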
# Sfp inh: inhibitors of Bacillus subtilis Sfp phosphopantetheinyl transferase. Q9F4F7. Biochemical Sfp PPTase activity, qHTS. Potency, µM, for the others: max response, negative = inhibition, hits mostly inhibitors. actives 3.5% (n = 310,000); active = well fitted inhibition curve with a large enough effect; inconclusive = small, poorly fitted or top-dose-only effect, or another doubt; inactive = no such curve, though single readings can be large or run the other way;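 also: the enzyme is Sfp with the accession as filed and its product quenches rhodamine fluorescence; potency is read from the fitted curve at half-maximal effect; 0% = enzyme reaction without inhibitor and -100% = no enzyme wells; top concentration of the series not given in the record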
#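 After 15 min at room temperature with compound, 15 nM Sfp received 5 uM rhodamine-CoA plus 12.5 uM BHQ-2-ybbR (50 mM Hepes pH 7.6, 10 mM MgCl2). Rate came from the fluorescence difference over 30 min, ex 525/em 598 nm.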
# D2 ag: agonists of human D2 dopamine receptor (beta-arrestin). P14416. DiscoveRx PathHunter D2 beta-arrestin, luminescence, 90 min; 100% = 57 uM dopamine signal. activation, % (concentration not given with the values). actives 0.084% (n = 360,000). AID 624465; in the data active = activation above about 40%; inconclusive = about 15% to 40%; inactive = below about 15%; also: compound concentration not given in the record; the text of the record calls up to 30% inactive
# Target sequence (P14416 whole entry, looked up): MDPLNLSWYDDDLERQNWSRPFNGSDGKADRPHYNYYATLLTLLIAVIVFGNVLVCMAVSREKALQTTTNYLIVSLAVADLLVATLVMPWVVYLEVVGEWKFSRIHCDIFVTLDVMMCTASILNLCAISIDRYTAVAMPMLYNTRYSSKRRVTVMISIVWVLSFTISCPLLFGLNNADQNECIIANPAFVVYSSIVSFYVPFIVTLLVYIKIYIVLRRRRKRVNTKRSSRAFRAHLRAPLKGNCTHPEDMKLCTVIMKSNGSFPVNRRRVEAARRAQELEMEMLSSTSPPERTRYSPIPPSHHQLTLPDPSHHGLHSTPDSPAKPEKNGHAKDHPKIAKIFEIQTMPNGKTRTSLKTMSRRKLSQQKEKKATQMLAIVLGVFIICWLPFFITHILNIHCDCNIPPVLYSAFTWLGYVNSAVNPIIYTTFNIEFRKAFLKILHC
#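 Agonist mode: compounds alone added to overnight-plated D2 PathHunter cells for 90 min at 37 C, with 57 uM final dopamine (EC100) defining full response. Beta-arrestin recruitment detected by chemiluminescent reagent, read after 1 h at ambient temperature.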
# An asterisk follows results filed as active; ? = inconclusive; / = not tested or not shown; & = joins results of further samples; [ ] = another dose, or the depositor's remark.
SMILES,gsp agonist,ClpP mod,Menin-MLL FL inh,gsp antag,PINK1 modulator,Sfp inh,D2 ag
CCOC(=O)c1ccc(NC(=S)N2CCN(C)CC2)cc1,-19%[15.4 µM],-0.3%,-1.4,7%,-1.3%,1%,-5.3
O=C(COC(=O)c1cccnc1Cl)c1ccc2c(c1)OCCO2,13%,-1.1%,0.8,8%,-0.3%,-8%,-1.5
COc1ccc(-c2ccc(-c3cc(=O)oc4cc(OC)c(OC)c(OC)c34)cc2)cc1F,/,-0.3%,-0.8,-14%,-0.6%,-2%,-0.7
CCOc1ccccc1NC(=O)c1ccc2[nH]c(C)c(C)c2c1,-14%[15.4 µM],/,-2.2,-15%,1.1%,10%,-2.9
O=C(COC(=O)c1cccc(F)c1)Nc1cccnc1Cl,-7%[15.4 µM],25µM*,1.3,0%,-0.8%,15%,-0.5
COc1ccc(C(=O)NCC(=O)OCc2nc(N)nc(Nc3ccccc3C)n2)cc1,?,-0.1%,/,?,1.2%,/,2.7
O=C(COC(=O)c1cccnc1Cl)c1ccccc1,23%,0.2%,-1.9,6%,4.2%[38.3 µM],15%,-4.6
CCOC(=O)C1(CC2CC2)CCN(Cc2cn[nH]c2-c2cccc(F)c2)CC1,4%,-0.5%,-2.2,14%,6.2%,15%,-2.3
O=[N+]([O-])c1cnc2ccccn12,19%,-1.6%,3.5,7%,0.1%,7%,-5.3
CN1CCN(C(=S)NC(=O)c2ccc(C(C)(C)C)cc2)CC1,-23%[15.4 µM],?,8.0,1%,1.7%,-7%,-3.5
COc1ccc(CSCC(=O)N/N=C/c2ccccc2O)cc1,16%,/,5.4,-6%,-0.3%,14%,-0.8
CC(C)c1ccc(NC(=O)c2ccc3snnc3c2)cc1,-10%,1.8%,/,2%,4.2%,5%,1.2
CC1=C(C(=O)Nc2ccc(C)cc2)C(c2ccc(N(C)C)cc2)NC(=O)N1 (centres undefined),-2%,-0.3%,3.6,-4%,1.9%[38.3 µM],-15%,-0.5
O=C1c2ccccc2C(=O)N1CCc1c(-c2[nH]c3ccccc3c2CCN2C(=O)c3ccccc3C2=O)[nH]c2ccccc12,/,0.7%,/,7%,0.8%,/,-1.0
Cc1nn(Cc2ccccc2)c(C)c1/C=N/NC(=O)c1cccnc1,-57%[inhibitor],-0.4%,-0.2,8%,3.1%,9%,-2.0

# Shown with values under each structure: part of the list above
# Every second line gives: gsp agonist	ClpP mod	Menin-MLL FL inh	gsp antag	PINK1 modulator	Sfp inh	D2 ag
- CC(C)c1ccc(NC(=O)c2ccc3snnc3c2)cc1
→ -10%	1.8%	/	2%	4.2%	5%	1.2
- CC1=C(C(=O)Nc2ccc(C)cc2)C(c2ccc(N(C)C)cc2)NC(=O)N1 (centres undefined)
→ -2%	-0.3%	3.6	-4%	1.9%[38.3 µM]	-15%	-0.5
- O=C1c2ccccc2C(=O)N1CCc1c(-c2[nH]c3ccccc3c2CCN2C(=O)c3ccccc3C2=O)[nH]c2ccccc12
→ /	0.7%	/	7%	0.8%	/	-1.0
- Cc1nn(Cc2ccccc2)c(C)c1/C=N/NC(=O)c1cccnc1
→ -57%[inhibitor]	-0.4%	-0.2	8%	3.1%	9%	-2.0

# Continuation.
SMILES,gsp agonist,ClpP mod,Menin-MLL FL inh,gsp antag,PINK1 modulator,Sfp inh,D2 ag
O=C1CCCC(=NCc2ccco2)C1,5%,-3.5%,?,9%,0.1%[38.3 µM],11%,1.0
CCN1C(=O)/C(=C\N2CCOCC2)SC1=S,-33%[inhibitor],-1.2%,20,2%,1.1%,0%,-1.0
COc1ccc(S(=O)(=O)Nc2cccc3c2O[C@H](CN(C)S(=O)(=O)c2ccc(OC)cc2)[C@@H](C)CN([C@H](C)CO)C3=O)cc1,/,-3.3%,/,-23%,0.5%,/,-2.5
CC(C)CCn1c(CN2CCN(Cc3ccccc3)CC2)nc2c1c(=O)n(C)c(=O)n2C,?,-8.8%,-0.6,-2%,-1.4%,8%,-4.2
CCS(=O)(=O)N1Cc2ccccc2CC1C(=O)N(C)Cc1ccc(OC)c(F)c1 (centres undefined),-8%[15.4 µM],/,0.1,-8%,1.4%,-12%,-0.2
CCOC(=O)c1ccc(N=C2C(=S)N(c3ccc(C(=O)OCC)cc3)C(=N)N2/N=C/c2ccccc2)cc1,4%,-4.9%,1.6,-20%,3.2%[38.3 µM],-2%,-2.6
Cc1cc(C)cc(NC(=O)N2c3ccccc3NC(=O)CC2C)c1 (centres undefined),-4%[15.4 µM],/,3.6,6%,2.1%,-26%,-1.8
O=C(NC12CC3CC(CC(C3)C1)C2)c1ccc([N+](=O)[O-])cc1,-42%[inhibitor],-1.5%,-0.4,5%,2.0%,19%,-2.9
Cc1ccc([C@H]2C[C@@H](O)[C@H](n3cc(C4CC4)nn3)CN2C(=O)C2CCCCC2)cc1,20%,0.1%,/,/,-0.6%,/,-10
Cc1ccc(C2=N/C(=C\c3cccc(F)c3)C(=O)O2)cc1,?,1.1%,-7.3,2%,-0.2%,5%,-3.5
Nc1nn(-c2ccccc2)c(N)c1N=Nc1ccccc1,2%,0.6%,3.9,18%,11%,-5%,-5.3
COc1cc(COCC(O)CN2CCc3ccccc3C2)cc(OC)c1OC (centres undefined),-32%,-2.4%,-2.5,7%,-0.1%,4%,-3.2
O=C(c1ccccc1)n1nnc2ccccc21,-1%[15.4 µM],-2.0%,0.4,3%,-0.7%,?,-4.0
CCOc1ccc2nc(NC(=O)C(CCSC)NS(=O)(=O)c3cccs3)sc2c1 (centres undefined),?,?,1.9,11%,?,-4%,-1.1
N#CCc1cc2ccc3cccc4ccc(c1)c2c34,4%,3.9%,-0.2,1%,0.6%,8%,-3.7
Cc1ccc(OCc2n[nH]c(=S)n2Cc2ccccc2)cc1,17%[15.4 µM],-1.0%,-2.2,-30%,3.8%,8%,0.9
CCOc1ccc(Br)cc1S(=O)(=O)Nc1ccc(Cl)c(S(=O)(=O)N(C)C)c1,-21%,1.2%,2.0,-22%,?,10%,-1.8
N#CC(C(=O)Nc1cccc(Cl)c1)=C1Nc2ccccc2N1,-17%,-13%,0.2,1%,7.6%,1%,1.7
CCCC(C(=O)Nc1cccc(S(=O)(=O)N2CCCC2)c1)c1ccccc1 (centres undefined),4%[15.4 µM],/,/,-10%,-1.6%,/,-2.1
Cc1cccc(COc2ccc(/C=N/NC(=O)c3nnn(-c4nonc4N)c3CN3CCCCC3)cc2)c1,-23%,-1.8%,-0.8,-5%,9.7%,17%,0.2
Cc1cccc(NC(=O)C2CC2c2ccccc2)c1C (centres undefined),-45%[inhibitor],-6.4%,-2.3,4%,-4.4%,2%,1.6
CCC(Sc1nc(N)c(NC(=O)c2ccco2)c(=O)[nH]1)C(=O)O (centres undefined),-8%[15.4 µM],3.2%,/,3%,-0.6%,7%,-3.8
CCOc1cc(CNCCO)cc(Br)c1OCc1cccs1,-1%,-0.3%,-0.2,5%,0.5%[38.3 µM],-21%,-3.1
CCCCNC(=S)N1CCN(Cc2ccc3c(c2)OCO3)CC1,-1%[15.4 µM],/,-0.8,3%,-0.3%,14µM*,3.7
O=C(NN=C1CCCCCCCCCCC1)c1cccc(S(=O)(=O)N2CCOCC2)c1,1%[15.4 µM],1.4%,4.0,6%,-0.3%,4%,-1.4
O=C(Nc1ccc(Br)cc1Br)c1cccc2c1C(=O)N(C1CCCCC1)C2,?,-0.4%,/,-10%,8.1%,10%,0.0
O=C1CCN(S(=O)(=O)c2ccc(Cl)cc2)N1,?,-1.2%,2.5,-1%,2.1%,3%,-1.8
COc1ccc(NC(=S)NC(=O)c2cccnc2)cc1,10%,/,3.7,-13%,0.8%,-2%,-3.8
O=C(O)Cc1ccc(NS(=O)(=O)c2c(Cl)cccc2Cl)cc1,-46%[inhibitor],/,0.2,7%,3.8%,14%,-0.3
c1ccc(-c2nc[nH]c2-c2ccccc2)cc1,-3%,-19%,1.7&2.4&5.0,1%,?,7%&11%&4%,1.9
Cc1nc2cc(NC(=O)COc3ccc(C#N)cc3)ccc2n1-c1ccccc1,26%,-9.9%,-2.8,?,-2.3%,-4%,-1.6
O=C1OC(CC(=O)N(Cc2nnc(-c3ccccc3Cl)o2)C2CC2)c2ccccc21 (centres undefined),5%,0.3%,/,-16%,-0.4%,/,-2.6
C#CCn1c(=NC(=O)c2sc3ccccc3c2Cl)sc2cc(S(N)(=O)=O)ccc21,18%,-2.4%,0.2,0%,?,?,-0.8
Cc1ccc(-c2nn3c(C)nnc3s2)cc1NCc1c(F)cccc1Cl,11%,48%,1.0,-13%,/,4%,2.7
CCC(C)(C)n1nnnc1C(c1ccc(OC)cc1)N1CCN(C(=O)c2ccco2)CC1 (centres undefined),22%[15.4 µM],-0.5%,-2.9,-30%,2.9%,4%,-1.8
CC(C)CC1C2C(=O)N(c3ccccc3)C(=O)C2ON1c1ccccc1 (centres undefined),-1%,1.3%,-1.4,-3%,2.2%,25%,-3.4
Cc1cccc(N(C(=O)CNC(=O)c2ccco2)C(C(=O)NCC2CCCO2)c2ccccc2)c1 (centres undefined),9%[15.4 µM],/,2.1,-17%,-1.7%,10%,12
COc1ccc(/C=N/NC(=O)COc2ccc(Cl)cc2Cl)cc1Cn1nc(C)cc1C,-5%,-13%,1.2,-13%,3.4%,12%,-9.7
Cc1ccc2cc(CCNC(=O)c3cccs3)c(=O)[nH]c2c1,?,?,0.8,-3%,0.0%,9%,-1.5
O=C(NCCc1ccccc1)C1CCC(=O)N1CCc1ccccc1 (centres undefined),-7%,/,-0.1,3%,2.7%,11%,-2.3
O=C(CCn1c(=O)oc2ccccc21)Nc1nccs1,28%,-1.5%,-2.2,15%,-1.2%,1%,-2.4
Cc1ccc(Nc2nnc(SCc3ccccc3)s2)cc1,-14%,-0.6%,-2.3,1%,0.5%,5%,0.3
O=C(COC(=O)c1ccc([N+](=O)[O-])cc1)Nc1ccc(Cl)cn1,32%[15.4 µM],/,/,5%,3.0%,/,-4.9
Cc1ccc(C(=O)Oc2cccc(NC(=O)c3cccs3)c2)cc1S(=O)(=O)N1CCOCC1,?,-9.9%,-1.2,-18%,3.4%,-1%,1.8

# Assay outcomes: PubChem BioAssay, National Center for Advancing Translational Sciences (NCATS)
